Assay outcomes (PubChem)
ClpP mod: qHTS Assay for Activators of ClpP. 340,000 tested, 1.9% active. Potency, µM (titrated, usually from 57.5 µM), for the others: at the top dose activity change, negative = active. ATP-dependent Clp protease proteolytic subunit (Bacillus subtilis (strain 168)), P80244. purified B. subtilis ClpP, FRET peptide cleavage, 20 min; active = well fitted falling curve with a large enough effect; inconclusive = small, poorly fitted or top-dose-only effect; inactive = no such curve, though single readings can be large or run the other way; note: the source files actives as falling curves though it sought activators and does not explain the sign; nearly all actives have a fitted effect of over 65% in size; many hits overshoot -100%
Target sequence (P80244 whole entry, looked up): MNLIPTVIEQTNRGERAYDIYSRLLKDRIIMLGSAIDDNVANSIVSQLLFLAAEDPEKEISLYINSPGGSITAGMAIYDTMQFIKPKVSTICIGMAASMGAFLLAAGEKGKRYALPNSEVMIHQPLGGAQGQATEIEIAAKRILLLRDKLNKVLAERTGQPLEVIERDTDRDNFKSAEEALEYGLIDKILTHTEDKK
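ClpP 10 microg/mL final, pH 8 Tris/KCl buffer with BSA, glycerol, Tween-20; compound pinned in; FRET-FV substrate; RT 20 min; Ex320/Em430; ΔFRET vs ADEP 5.8 microM, DMSO, no enzyme.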
Active calls of the source: *; u = inconclusive. Potency is the fitted concentration of half-maximal effect.

SMILES	ClpP mod
COc1ccc(CN2CCCN(CC(=O)Nc3ccc(Br)cc3F)S2(=O)=O)cc1	0.0%
CCOc1cc(C(=O)N2CCC(c3ccncc3)CC2)cc(OCC)c1OCC	-2.2%
C=CCc1cccc2cc(-c3nc4ccc(C(=O)O)cc4[nH]3)c(=O)oc12	-17%
CCOc1cc(-c2nnc(SCC(=O)NC3CCCCC3)nc2-c2ccc(OC)c(OCC)c2)ccc1OC	-2.6%
COc1ccc(OCC(=O)Nc2ccc3c(c2)nc(CCNC(=O)c2ccco2)n3C)cc1	-0.1%
CCCCN1C(=O)CN(C2CCCCCC2)C(=O)C1c1ccc(OC(C)C)c(OC)c1 (stereo unspecified)	-0.3%
Cn1c(=O)oc2cc(S(=O)(=O)CCC(=O)NCc3ccc(Cl)cc3)ccc21	0.1%
Cc1c(C(=O)N2CCCC2)oc2c1-c1nn(CC(=O)NCc3ccccc3F)cc1CC2	-5.9%
COc1ccc(NC(=O)c2c(NCc3sccc3C)sc3c2CCCCC3)c(OC)c1	0.4%
Cc1ccc(N(C)C(=O)Cn2ncc3c([nH]c4ccccc43)c2=O)cc1C	-28%
O=C(Nc1cccc(Cl)c1Cl)c1cc2nc(-c3ccc(Cl)cc3)cc(C(F)(F)F)n2n1	-5.0%
CC1=C(C(=O)OCC2CCCCC2)C(c2cccc(F)c2F)CC(=O)N1 (stereo unspecified)	1.8%
CCc1ccc(S(=O)(=O)NCc2cccn2Cc2cccc(C)c2)cc1	0.5%
CCOC(=O)C1(C)C=C(Nc2cccc(C)c2)C(=O)N1c1ccccc1 (stereo unspecified)	u
COc1ccc2c(c1)c1c(c(=O)n(Cc3ccccc3)c(=O)n1CC(=O)NCc1ccc(C)cc1)n2C	1.0%
CCOc1ccc(NC(=O)Cn2cc(C(=O)c3ccccc3)c(=O)c3cc4c(cc32)OCCO4)cc1	-1.0%
Cc1cc(C)n(C(C)CC(=O)Nc2cccc(C(F)(F)F)c2)n1 (stereo unspecified)	-1.1%
CCc1ccc(NS(=O)(=O)c2ccc3[nH]c4c(c3c2)CCCCCC4)cc1	-15%
Cc1cc(C)c2oc(-c3cccc(NC(=O)COc4ccc([N+](=O)[O-])cc4)c3)nc2c1	1.4%
Cc1ccc(Cl)c2c1N[C@@H](c1ccc(C(=O)O)cc1)[C@H]1CC=C[C@@H]21	0.6%
Cc1cccc(N2CCN(C(=O)c3ccc4c(c3)N(Cc3cccc(Cl)c3)C(=O)c3ccccc3S4=O)CC2)c1C (stereo unspecified)	0.1%
CN1CCN(c2nc3c(S(=O)(=O)c4ccc(Br)cc4)nnn3c3ccsc23)CC1	0.0%
Cc1ccc(C)c(CN2CCCN(Cc3ccccc3C)S2(=O)=O)c1	0.0%
CCOCCc1nn2c(=O)cc(COC(=O)c3ccc(NC(=O)C(C)(C)C)cc3)nc2s1	-10%
Cc1ccc2occ(-c3cc(-c4ccc(F)cc4)nc4c3COc3ccc(F)cc3-4)c(=O)c2c1	-1.6%
O=C(Cn1c(=O)oc2ccccc21)Nc1ccc(C(=O)O)cc1	1.8%
Cc1ccc(C)c(CN2C(=O)c3ccccc3S(=O)c3ccc(C(=O)N4CCOCC4)cc32)c1 (stereo unspecified)	-1.3%
Cc1ccc(-n2c(SCc3ccccc3)nc3c([nH]c4ccccc43)c2=O)cc1	3.4%
Cc1ccc(C)c(NC(=O)CN(C)S(=O)(=O)c2ccc3c(c2)CCC(=O)N3)c1	1.4%
Cc1ccc(C(=O)N2CCc3cc(CNS(=O)(=O)c4ccc(Cl)s4)ccc32)cc1	-1.4%
CCCCOc1ccc(CNC(=O)Cc2ccc(NC(=O)N3CCSc4ncccc43)cc2)cc1	u
COCCCn1c(SCc2cccc(Cl)c2)nc2c(sc3ccccc32)c1=O	-9.1%
COc1ccccc1NC(=O)c1c(C)cc(C)nc1SCC(=O)Nc1cccc(C)c1	-5.2%
COc1cccc(-c2nc(S(=O)(=O)c3ccccc3)c(N3CCC(C)CC3)o2)c1	-13%
Cc1nn2c(C)c(C(=O)NCCc3ccccc3)cnc2c1-c1ccccc1	0.7%
Cc1ccc(C)c2c(C)ccnc12	4.7%
COc1ccc(Cn2ccc3nc(C)c(C(=O)Nc4ccc(C)c(F)c4)cc3c2=O)cc1	-13%
Cc1ccc2oc(-c3ccc(C)c(NC(=O)COc4ccccc4C)c3)nc2c1	u
CCCS(=O)(=O)N1CCC(C(=O)NCCOC)CC1	0.9%
COc1ccc(-c2nc3sc(CCNC(=O)Cc4ccc(Cl)cc4)c(C)n3n2)cc1	-3.2%

5 of the compounds above, with bars between the fields:
SMILES | ClpP mod
Cc1ccc2oc(-c3ccc(C)c(NC(=O)COc4ccccc4C)c3)nc2c1 | u
COc1ccc(-c2nc3sc(CCNC(=O)Cc4ccc(Cl)cc4)c(C)n3n2)cc1 | -3.2%
COCCCn1c(SCc2cccc(Cl)c2)nc2c(sc3ccccc32)c1=O | -9.1%
Cc1nn2c(C)c(C(=O)NCCc3ccccc3)cnc2c1-c1ccccc1 | 0.7%
COc1ccc(Cn2ccc3nc(C)c(C(=O)Nc4ccc(C)c(F)c4)cc3c2=O)cc1 | -13%

Another view of part of the listing above:
> COc1cccc(-c2nc(S(=O)(=O)c3ccccc3)c(N3CCC(C)CC3)o2)c1
  ClpP mod: -13%
> Cc1nn2c(C)c(C(=O)NCCc3ccccc3)cnc2c1-c1ccccc1
  ClpP mod: 0.7%
> Cc1ccc(C)c2c(C)ccnc12
  ClpP mod: 4.7%
> COc1ccc(Cn2ccc3nc(C)c(C(=O)Nc4ccc(C)c(F)c4)cc3c2=O)cc1
  ClpP mod: -13%

More structures.
SMILES	ClpP mod
COc1ccccc1Nc1ncnc2c1nc1n2CCCC1	2.1%
CCOc1ccccc1NC(=O)c1nc(SC(C)C)ncc1Cl	0.9%
Cc1ccc(NC(=O)CSc2nc(-c3ccc(F)cc3)nc3c2Cc2c(CO)cnc(C)c2O3)cc1C	-3.0%
CCOC(=O)c1c(C)oc2ccc(N(C(=O)c3ccncc3)S(=O)(=O)c3ccc(Br)cc3)cc12	-1.1%
COc1ccc(NC(=O)c2sc3nc4c(cc3c2N)CN(Cc2ccccc2)CC4)cc1OC	0.4%
Cc1ccc(CN2C(=O)C3(c4ccccc42)N(c2ccc(C)c(Cl)c2)C(=O)CS3(=O)=O)cc1 (stereo unspecified)	-1.2%
O=C1CC(c2ccccc2)Sc2nc(-c3ccc(F)cc3)nn21 (stereo unspecified)	0.6%
Cc1ccccc1OCC(=O)Nc1ccc2nc(SCC(=O)N3CCc4ccccc43)sc2c1	-4.4%
CC(C)N(Cc1ccccc1)S(=O)(=O)c1ccc(-c2cc(C(F)(F)F)on2)s1	-2.8%
Cc1ccc(Cl)cc1N1CCN(C(=O)c2cn(C3CCCCC3)c(=O)c3c2c2ccccc2n3C)CC1	-16%
O=c1[nH]c(SCc2ccccc2)ncc1S(=O)(=O)c1ccccc1	-1.8%
Cc1ccc(N2CCN(C(=O)CCc3c(C)nc4c(c3C)c(=O)n(C)c(=O)n4C)CC2)c(C)c1	-5.9%
Cc1ccn2c(Nc3ccc(C(C)C)cc3)c(-c3cccnc3)nc2c1	-28%
CCc1cc2c(cc3c(=O)n(CCCC(=O)NCc4cccc(Cl)c4)ncn32)s1	0.1%
CCC(Sc1nc2ncccc2[nH]1)C(=O)Nc1ccccc1F (stereo unspecified)	-1.5%
Cc1cccc(-c2noc(CNC(=O)c3ccccc3Br)n2)c1	-1.7%
O=C(CCCc1ccccc1)NC1CC(=O)N(c2ccc(F)cc2)C1 (stereo unspecified)	-1.4%
Cc1ccc(N2CCN(C(=O)c3cc(S(=O)(=O)N4CCCCC4)c[nH]3)CC2)c(C)c1	0.2%
O=C(CSCc1ccc(F)cc1)N1CCc2c([nH]c3ccccc23)C1c1ccccc1 (stereo unspecified)	-3.8%
CCC(=O)Nc1sc2c(c1C(=O)Nc1ccccc1C)CCC(C)C2 (stereo unspecified)	1.8%
Cc1ccc(OCCCCn2c(CCNC(=O)C(C)(C)C)nc3ccccc32)cc1	-0.6%
CCn1nnc2cc(C(=O)Nc3cccc(C(F)(F)F)c3)ccc21	-3.9%
CCCOc1ccc(C2=NC(c3ccc(F)cc3)=Nc3ccc(OC)cc3N2)cc1	-1.6%
Cc1ccc(-c2nnc3ccccc3c2C(=O)Nc2ccccc2F)cc1	-0.7%
COc1cccc(-n2cc(C(=O)OCc3ccc(F)c(F)c3)c3ccccc3c2=O)c1	-6.9%
Cc1ccc(CS(=O)(=O)c2ncc(Cl)c(C(=O)Nc3nc4ccc(C)cc4s3)n2)cc1	0.1%
Brc1cccc(-c2nn(-c3ccccc3)c3c2cnc2cc4c(cc23)OCO4)c1	-2.3%
Nc1c(-c2nc(-c3cccs3)no2)nnn1-c1cccc(F)c1	-0.8%
Cc1ccc(-c2nnc(Nc3ccc(OCC(N)=O)cc3)c3ccccc23)cc1S(=O)(=O)N(C)C	0.9%
CC(C)Oc1ccc(CNC(=O)CN2C(=O)CCc3cc(S(=O)(=O)N4CCCCC4)ccc32)cc1	0.3%
COc1ccc(C(C(=O)NCc2ccccc2)N(C(=O)Cn2nnc3ccccc32)c2ccc(F)cc2)cc1 (stereo unspecified)	-1.0%
CCCCCn1c(=N)n(CC(O)COc2cccc(C)c2)c2ccccc21 (stereo unspecified)	-0.4%
O=C(c1ccc2c(c1)N(Cc1ccc(Cl)cc1)C(=O)c1ccccc1S2(=O)=O)N1CCN(Cc2ccccc2)CC1	-2.4%
O=C(Nc1ccc(OC(F)F)cc1)c1nc(SCc2ccccc2F)ncc1Cl	-1.1%
CCCCOC(=O)/C(C#N)=C/c1ccc(-c2cccc(C(F)(F)F)c2)o1	-0.5%
CCOC(=O)C1CCCN(S(=O)(=O)c2cc3c(cc2C)NC(=O)CO3)C1 (stereo unspecified)	0.3%
Cc1ccc(Cn2cc(S(=O)(=O)c3ccccc3)c(=O)c3cc(F)c(N4CCOCC4)cc32)cc1	u
COc1ccc(S(=O)(=O)c2c(Nc3ccc(C)cc3)sc(C(=O)c3ccc4c(c3)OCO4)c2N)cc1	-0.9%
CCCc1cc(=O)[nH]c(Nc2cccc(Cl)c2Cl)n1	-3.3%
CC1CCN(C(=O)Cn2c(=O)n(CCCCCC(=O)NCc3ccccc3Cl)c(=O)c3sccc32)CC1	1.4%
COc1ccc(N2CCN(C(=O)c3cc4c(=O)n(Cc5ccco5)ccc4nc3C)CC2)cc1	-12%
COCC(=O)NCc1nc2cccnc2n1Cc1ccc(F)cc1	-1.1%
COc1ccc(N2CCN(C(=O)c3cc4c(s3)-c3c(C)cccc3OC4)CC2)cc1	0.3%
CN(C)c1ccc(C2C=Cc3ccccc32)c2ccccc12 (stereo unspecified)	0.5%
CCc1noc(-c2ccc(N3CCCCC3C)c([N+](=O)[O-])c2)n1 (stereo unspecified)	1.2%
CCn1cc2nc(SCc3ccc(F)cc3)n(Cc3ccc(Cl)cc3)c(=O)c2n1	-0.8%
CC(=O)c1cc(-c2ccccc2)n(CCC(=O)Nc2cc(C)cc(C)c2)c1C	21%
CCn1nc(C)c2c(-c3ccccc3)cc(=O)n(C(C)C(=O)NCCc3ccccc3)c21 (stereo unspecified)	4.6%
COc1ccc2c(Sc3ccc(C)cc3)c(C(=O)NC(C)c3ccccc3)[nH]c2c1 (stereo unspecified)	u
Cc1ccc(NC(=O)C2CCCN(c3nnc(-n4c(C)ccc4C)s3)C2)cc1Cl (stereo unspecified)	-3.5%

The list continues:
SMILES	ClpP mod
Cc1ccccc1S(=O)Cc1ccc(C(=O)NCc2ccccc2Cl)o1 (stereo unspecified)	0.4%
CCOC(=O)c1ccc(NC(=O)CC2C(=O)N(c3ccccc3)C(=O)N2Cc2ccc(C)cc2)cc1 (stereo unspecified)	-1.4%
O=C(Cn1cc(SCc2cccc(Cl)c2)c2ccccc21)N1CCCCCC1	3.6%
O=C(CSc1nnc(-c2cccc(Cl)c2)o1)N1CCc2ccccc21	-3.3%
CCOc1ccc(NC(=O)NCCCN2CCN(c3ccc(OC)cc3)CC2)cc1	0.1%
Cc1ccc(N2CC(NC(=O)c3ccc(S(=O)(=O)N4CCCC4)cc3)CC2=O)cc1 (stereo unspecified)	1.1%
CCc1cccc(C)c1NC(=O)c1cc(S(=O)(=O)NCc2ccccc2Cl)ccc1F	-2.6%
Cc1ccc2oc(C(=O)Nc3nnc(CC(C)C)s3)cc(=O)c2c1	0.4%
COc1cc(OC)c(N(C)C(=O)c2cc3c(s2)-c2ccccc2OC3)cc1Cl	130%
CC1=C(c2ccc(C)c(C)c2)S(=O)(=O)N(Cc2ccc(C(=O)NCc3ccccc3F)cc2)C1=O	14µM*
CCC(=O)N1CCc2cc(Br)cc(S(=O)(=O)CCC(=O)NCCc3ccc(Cl)cc3)c21	-1.0%
O=C(NCCn1cc(SCc2ccc(C(F)(F)F)cc2)c2ccccc21)c1cccs1	-0.1%
Cc1cccc(NC(=O)Cn2c(=O)n(CCCS(=O)(=O)C3CCCCC3)c(=O)c3ccccc32)c1	-3.2%
Cc1ccc2nc(COc3ccccc3NC(=O)COc3ccc(F)cc3)cc(=O)n2c1	-0.9%
COc1ccc2c(c1)c1c(c(=O)n(Cc3ccccc3)c(=O)n1CC(=O)NCc1ccccc1)n2C	4.1%

Some of the compounds tested; count on the stated rates, not on these rows.
